High-throughput results from PubChem.
FPR binder = human FPR ligands by binding competition, primary screen, cell-based, FPRL1 counter-screen, flow cytometry | FPR-expressing cells, fluorescent ligand binding | inhibition, %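 (tested at 6.7 µM)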 | fMet-Leu-Phe receptor (Homo sapiens), P21462 | actives 0.74% (n = 24,000);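 also: 0% = buffer wells and 100% = receptor blocker peptide wells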
Target sequence (P21462 whole entry, looked up): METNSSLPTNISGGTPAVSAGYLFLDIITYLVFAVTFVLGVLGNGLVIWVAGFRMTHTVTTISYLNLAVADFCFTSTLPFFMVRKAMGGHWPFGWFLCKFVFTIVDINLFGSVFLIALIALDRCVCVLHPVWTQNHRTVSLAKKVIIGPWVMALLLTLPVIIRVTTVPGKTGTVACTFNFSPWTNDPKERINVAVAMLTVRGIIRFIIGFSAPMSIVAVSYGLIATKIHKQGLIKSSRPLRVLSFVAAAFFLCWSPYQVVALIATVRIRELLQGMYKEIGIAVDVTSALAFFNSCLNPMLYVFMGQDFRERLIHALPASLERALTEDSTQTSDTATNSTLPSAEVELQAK
FPRL1 ligand = human FPRL1 ligands by binding competition, primary screen, cell-based, FPR counter-screen, flow cytometry; actives 0.3% (n = 24,000); inhibition, %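 (tested at 6.7 µM)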; FPRL1-expressing cells, fluorescent ligand binding inhibition; AID 441, 2006; N-formyl peptide receptor 2 (Homo sapiens), P25090;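 also: 0% = buffer alone and 100% = receptor blocker peptide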
Target sequence (P25090 whole entry, looked up): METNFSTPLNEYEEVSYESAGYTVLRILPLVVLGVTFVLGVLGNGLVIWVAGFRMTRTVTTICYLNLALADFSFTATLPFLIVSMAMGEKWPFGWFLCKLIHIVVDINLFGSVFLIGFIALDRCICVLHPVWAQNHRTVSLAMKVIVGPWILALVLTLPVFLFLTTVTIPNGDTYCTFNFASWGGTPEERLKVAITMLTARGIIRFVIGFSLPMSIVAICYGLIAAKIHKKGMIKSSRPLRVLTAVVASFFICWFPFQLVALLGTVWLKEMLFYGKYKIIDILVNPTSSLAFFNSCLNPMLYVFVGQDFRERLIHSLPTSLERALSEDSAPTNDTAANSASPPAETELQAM
VCAM-1 down = inhibitors of TNFa-induced VCAM-1 surface display, cell-based, plate reader, pooled HUVEC, TNFa stimulus (AID 454); HUVEC TNFa-induced VCAM-1 surface immunofluorescence, plate reader; numbers were filed only for top-ranked candidate wells; inhibition, % at 5 µM; actives 0.2% (n = 10,000);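 active = compound among top-ranked inhibitors of TNF-induced VCAM-1 adhesion protein staining, with the hit upheld by image or statistical review; inactive = the rest, including hits rejected on review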;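 also: 0% = TNFa with vehicle and 100% = cells without TNFa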
VCAM-1 imaging = inhibitors of TNFa-induced VCAM-1 surface display, imaging, high-content imaging, pooled HUVEC, TNFa stimulus (AID 456). HUVEC TNFa-induced VCAM-1 surface expression, immunofluorescence imaging; numbers were filed only for top-ranked candidate wells. actives 0.2% (n = 10,000). inhibition, % at 5 µM, or IC50 in µM where a hit was titrated;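 active = top tenth filtered wells with inhibition above zero that passed visual or statistical confirmation; inactive = the rest, including hits rejected on review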;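 also: 0% = stimulated vehicle wells and 100% = unstimulated cells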
VCAM-1 up imaging = enhancers of VCAM-1 display on endothelial cells, imaging, high-content imaging, pooled HUVEC, TNFa stimulus (AID 457); Pooled HUVEC, TNFa-induced VCAM-1 immunofluorescence imaging; hits of this screen are not shown here; actives 0.2% (n = 10,000); calls only;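 active = a top-ranked rise in VCAM-1 staining upheld on image or statistical review; inactive = the rest, including candidates rejected on review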;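 also: compounds tested at 5 µM in the well; cells exposed to compound for 24 hours before fixing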
* marks the source's active call; other numbers are inactive results.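 The calls were made as follows, unless noted: active = mean above 30%; inconclusive = self-fluorescent; inactive = the rest.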 These rows are one share of the data (hit frequency here may not be typical).

CCOC(=O)c1c(NCc2ccc3c(c2)OCO3)c2ccccc2[nH]c1=O was read as FPR binder 2, FPRL1 ligand -3, VCAM-1 down inactive, VCAM-1 imaging inactive and VCAM-1 up imaging inactive.
Screening Cc1oc(-c2ccccc2F)nc1CS(=O)(=O)CC(=O)N1CCCCCC1 returned FPR binder -4, FPRL1 ligand -5, VCAM-1 down inactive, VCAM-1 imaging inactive and VCAM-1 up imaging inactive.
Screening CC(NCCc1ccc(O)cc1)C(O)c1ccc(O)cc1 (stereo not drawn) returned FPR binder -4, FPRL1 ligand -7, VCAM-1 down inactive, VCAM-1 imaging inactive and VCAM-1 up imaging inactive.
c1cnc(N2CCN(c3nc4ccccc4n4cnnc34)CC2)nc1 was read as FPR binder -10 and FPRL1 ligand -2.
COc1cccc(NC(=O)N(Cc2ccco2)C(C)c2cccs2)c1 (stereo not drawn) was read as FPR binder 2, FPRL1 ligand -1, VCAM-1 down inactive, VCAM-1 imaging inactive and VCAM-1 up imaging inactive.
`COCCn1cc(C(=O)N2CCCC(C)C2)c2c3ccccc3n(C)c2c1=O` (stereo not drawn) gave FPR binder 2 and FPRL1 ligand 13.
Screening O=C(Cn1nc(Cc2cccnc2)c2ccccc2c1=O)NCCCN1CCCC1=O returned FPR binder 0 and FPRL1 ligand 8.
Screening Cn1c(=O)c(=O)n(C)c2cc(S(=O)(=O)N3CCC(N4CCCCC4)CC3)ccc21 returned FPR binder 2 and FPRL1 ligand 2.
CN(C)CCNC(=O)c1ccc(CS(=O)(=O)c2ccc(Br)cc2)o1 was read as FPR binder 4 and FPRL1 ligand -4.
For CC(=O)c1ccc(N2CCN(C(=O)c3ccc4c(=O)n(-c5ccccc5)c(=O)[nH]c4c3)CC2)cc1 the results were FPR binder -4 and FPRL1 ligand -9.
For CC(C)C(=O)N(c1ccc2oc(=O)sc2c1)S(=O)(=O)c1cccs1 the results were FPR binder 4 and FPRL1 ligand 11.
N#Cc1cnn(Cc2ccc(Cl)cc2)c1N was read as FPR binder -2, FPRL1 ligand -7, VCAM-1 down inactive, VCAM-1 imaging inactive and VCAM-1 up imaging inactive.
CN(C)S(=O)(=O)c1ccc2c(c1)c(=O)c(C(=O)N1CCOCC1)cn2C was read as FPR binder -4 and FPRL1 ligand -2.
Screening CCOCCCNC(=O)C(NC(=O)CC1NC(=O)NC1=O)c1ccc(Cl)cc1 (stereo not drawn) returned FPR binder -8 and FPRL1 ligand -4.
CCOC(=O)c1ccc(N2C(=O)CC(Sc3nnc(C)s3)C2=O)cc1 (stereo not drawn) was read as FPR binder 0, FPRL1 ligand 2, VCAM-1 down inactive, VCAM-1 imaging inactive and VCAM-1 up imaging inactive.
`Cc1ccc(C(=O)NC(Cc2c[nH]c3ccccc23)C(=O)O)o1` (stereo not drawn) gave FPR binder -3, FPRL1 ligand -2, VCAM-1 down inactive, VCAM-1 imaging inactive and VCAM-1 up imaging inactive.
Screening COc1ccccc1-c1noc(-c2cccnc2)n1 returned FPR binder 6, FPRL1 ligand 3, VCAM-1 down inactive, VCAM-1 imaging inactive and VCAM-1 up imaging inactive.
Screening CCOc1ccccc1C(=O)NCCCn1ccnc1 returned FPR binder -3, FPRL1 ligand -1, VCAM-1 down inactive, VCAM-1 imaging inactive and VCAM-1 up imaging inactive.
Screening COc1ccccc1N1CCN(C/C(O)=C(\C#N)c2nc(-c3ccccc3)cs2)CC1 returned FPR binder -14, FPRL1 ligand -2, VCAM-1 down inactive, VCAM-1 imaging inactive and VCAM-1 up imaging inactive.
`Cc1ccc(S(=O)(=O)N2CCN(C(=O)N3CCOCC3)C2c2ccc(N(C)C)cc2)cc1` (stereo not drawn) gave FPR binder -2, FPRL1 ligand -3, VCAM-1 down inactive, VCAM-1 imaging inactive and VCAM-1 up imaging inactive.
For CCOC(=O)C1CCN(C(=O)C2CCN(S(=O)(=O)c3cccc4cccnc34)CC2)CC1 the results were FPR binder -4 and FPRL1 ligand -8.
CCOC(=O)C1CCN(C(=O)CCNC(=O)c2cc(OC)c(OC)c(OC)c2)CC1 was read as FPR binder -4 and FPRL1 ligand 1.
`CCOC(=O)C1=C(O)CCn2c1nc1ccccc12` gave FPR binder 0, FPRL1 ligand -5, VCAM-1 down inactive, VCAM-1 imaging inactive and VCAM-1 up imaging inactive.
`O=c1[nH]c2ccc(Cl)cc2c(=O)n1Cc1ccco1` gave FPR binder 10 and FPRL1 ligand -8.
Screening COc1ccccc1NC(=O)CSc1nnc(-c2ccncc2)o1 returned FPR binder 3, FPRL1 ligand 0, VCAM-1 down inactive, VCAM-1 imaging inactive and VCAM-1 up imaging inactive.
COC(=O)c1ccccc1NC(=O)CSc1nc2c(c(=O)n(C)c(=O)n2C)n1C was read as FPR binder -10, FPRL1 ligand 2, VCAM-1 down inactive, VCAM-1 imaging inactive and VCAM-1 up imaging inactive.
Screening CCOC(=O)C1CCCN(C(=O)c2cccs2)C1 (stereo not drawn) returned FPR binder 7, FPRL1 ligand -5, VCAM-1 down inactive, VCAM-1 imaging inactive and VCAM-1 up imaging inactive.
Screening Cc1cccc(N2CCN(C(=O)CCNC(=O)Cn3ccc4ccccc4c3=O)CC2)c1C returned FPR binder 2 and FPRL1 ligand 3.
COc1ccc(NC(=O)N(Cc2cccnc2)Cc2ccccc2Cl)c(OC)c1 was read as FPR binder -3 and FPRL1 ligand -1.
Screening COc1ccc(C(=O)Nc2ccc3oc(-c4cccc(F)c4)nc3c2)cc1OC returned FPR binder -5 and FPRL1 ligand -4.
For Cc1cc(Nc2cccc(C)c2C)n2nc(C)nc2n1 the results were FPR binder 3 and FPRL1 ligand 2.
`Cn1c(Cn2c(=O)sc3ccccc32)nnc1SCC(=O)N1CCCCCC1` gave FPR binder -8 and FPRL1 ligand 2.
For CCOC(=O)C1=C(C)N(C)C(=O)NC1c1cccc(O)c1 (stereo not drawn) the results were FPR binder 1, FPRL1 ligand -2, VCAM-1 down inactive, VCAM-1 imaging inactive and VCAM-1 up imaging inactive.
COc1cc(C)c(C(C)C)cc1S(=O)(=O)n1cnc(C)c1 was read as FPR binder -3 and FPRL1 ligand -7.
Screening Cc1ccc(CSc2nnc(Cn3c(=O)sc4ccccc43)n2C)cc1 returned FPR binder 11 and FPRL1 ligand 7.
For Cc1nn(Cc2ccccc2)c(C)c1NC(=O)c1cc(-c2ccco2)on1 the results were FPR binder 5, FPRL1 ligand 0, VCAM-1 down inactive, VCAM-1 imaging inactive and VCAM-1 up imaging inactive.
`COc1cc(C2C(C#N)=C(N)Oc3cc(C)oc(=O)c32)ccc1OC(=O)N1CCOCC1` (stereo not drawn) gave FPR binder -2 and FPRL1 ligand 0.
Cn1c(C(=O)NCCc2c[nH]c3ccccc23)cc2sccc21 was read as FPR binder -9 and FPRL1 ligand 6.
COC(=O)c1ccccc1NC(=O)C1CC=CCC1C(=O)O (stereo not drawn) was read as FPR binder -6, FPRL1 ligand -1, VCAM-1 down inactive, VCAM-1 imaging inactive and VCAM-1 up imaging inactive.
O=C(c1cnc2n(c1=O)CCS2)N(C1CCCCC1)C1CCCCC1 was read as FPR binder 0, FPRL1 ligand 0, VCAM-1 down inactive, VCAM-1 imaging inactive and VCAM-1 up imaging inactive.

Random excerpt: two compounds from above
For CC(C)C(=O)N(c1ccc2oc(=O)sc2c1)S(=O)(=O)c1cccs1 the results were FPR binder 4 and FPRL1 ligand 11.
`COc1cc(C2C(C#N)=C(N)Oc3cc(C)oc(=O)c32)ccc1OC(=O)N1CCOCC1` (stereo not drawn) gave FPR binder -2 and FPRL1 ligand 0.

Four structures from above, arranged by molecular weight, low to high.
`CCOC(=O)C1=C(O)CCn2c1nc1ccccc12` gave FPR binder 0, FPRL1 ligand -5, VCAM-1 down inactive, VCAM-1 imaging inactive and VCAM-1 up imaging inactive.
For CCOC(=O)C1=C(C)N(C)C(=O)NC1c1cccc(O)c1 (stereo not drawn) the results were FPR binder 1, FPRL1 ligand -2, VCAM-1 down inactive, VCAM-1 imaging inactive and VCAM-1 up imaging inactive.
COc1ccc(NC(=O)N(Cc2cccnc2)Cc2ccccc2Cl)c(OC)c1 was read as FPR binder -3 and FPRL1 ligand -1.
For CCOC(=O)C1CCN(C(=O)C2CCN(S(=O)(=O)c3cccc4cccnc34)CC2)CC1 the results were FPR binder -4 and FPRL1 ligand -8.

Later entries
Clc1cccc(-c2nnc3sc(-c4ccccc4)nn23)c1 was read as FPR binder 2, FPRL1 ligand 5, VCAM-1 down inactive, VCAM-1 imaging inactive and VCAM-1 up imaging inactive.
Screening O=C(CN1CCC2(CC1)OCCO2)c1ccc2cc[nH]c2c1 returned FPR binder -2 and FPRL1 ligand 0.
O=C(CSc1nc2ccc(Cl)cc2[nH]1)NCc1ccco1 was read as FPR binder 4, FPRL1 ligand -2, VCAM-1 down inactive, VCAM-1 imaging inactive and VCAM-1 up imaging inactive.
CC(C)Cc1cc(C(=O)Nc2ccc(F)cc2F)no1 was read as FPR binder 2 and FPRL1 ligand -1.
O=C(Nc1ccc(S(=O)(=O)Nc2ccc(Cl)cc2)cc1)C1CCCO1 (stereo not drawn) was read as FPR binder 3, FPRL1 ligand 2, VCAM-1 down inactive, VCAM-1 imaging inactive and VCAM-1 up imaging inactive.
Screening Cc1ccc(N=c2oc3cc(O)ccc3cc2C(N)=O)cc1 returned FPR binder 9 and FPRL1 ligand -2.
`O=C(CCNS(=O)(=O)c1cccc2nsnc12)Nc1ccc2c(c1)OCCO2` gave FPR binder 2, FPRL1 ligand -3, VCAM-1 down inactive, VCAM-1 imaging inactive and VCAM-1 up imaging inactive.
For COc1cccc(NC(=O)Cn2c(=O)n(CCCC(=O)NCc3ccco3)c(=O)c3ccccc32)c1 the results were FPR binder -1 and FPRL1 ligand 2.
For CCC(=O)N1CCc2cc(S(=O)(=O)CCC(=O)Nc3ccc(C)c(F)c3)ccc21 the results were FPR binder 0, FPRL1 ligand -6, VCAM-1 down inactive, VCAM-1 imaging inactive and VCAM-1 up imaging inactive.
Screening CCOC(=O)c1sc(NC(NC(=O)c2ccco2)(C(=O)OC)C(F)(F)F)nc1C (stereo not drawn) returned FPR binder 2 and FPRL1 ligand 0.
O=C(Cc1cccs1)Nc1nnc(CCc2ccccc2)s1 was read as FPR binder -2, FPRL1 ligand -5, VCAM-1 down inactive, VCAM-1 imaging inactive and VCAM-1 up imaging inactive.
N#Cc1c(/N=C/c2ccco2)sc2c1CCC2 was read as FPR binder -6, FPRL1 ligand 3, VCAM-1 down inactive, VCAM-1 imaging inactive and VCAM-1 up imaging inactive.
For CCc1cc2ccc(C)cc2nc1SCC(=O)N1CCN(C(=O)c2ccco2)CC1 the results were FPR binder 1, FPRL1 ligand -2, VCAM-1 down inactive, VCAM-1 imaging inactive and VCAM-1 up imaging inactive.
`CCCCCSc1nc2c(cnn2-c2ccccc2)c(=O)[nH]1` gave FPR binder -3, FPRL1 ligand 2, VCAM-1 down inactive, VCAM-1 imaging inactive and VCAM-1 up imaging inactive.
For COc1cccc(CC(=O)NCC2COc3ccccc3O2)c1OC (stereo not drawn) the results were FPR binder -1 and FPRL1 ligand -1.
CCCCNC(=O)C(NS(=O)(=O)c1cccc2nsnc12)c1ccccc1 (stereo not drawn) was read as FPR binder 9 and FPRL1 ligand 4.
O=C(c1cnc2ccccn2c1=O)N1CCc2ccccc21 was read as FPR binder -2 and FPRL1 ligand 9.
`CCN(c1cccc(C)c1)S(=O)(=O)c1ccc2c(c1)CCN2C(C)=O` gave FPR binder 0 and FPRL1 ligand 8.
For CSCCC(NS(=O)(=O)c1ccc2c(c1)oc(=O)n2C)C(=O)NC1CCCCC1 (stereo not drawn) the results were FPR binder -2, FPRL1 ligand -3, VCAM-1 down inactive, VCAM-1 imaging inactive and VCAM-1 up imaging inactive.
For Cn1c(=O)cc(OCCCC(=O)Nc2ccccn2)c2ccccc21 the results were FPR binder -5 and FPRL1 ligand 1.
`CC1CCCCN1CCn1cnc2c([nH]c3ccccc32)c1=O` (stereo not drawn) gave FPR binder -4 and FPRL1 ligand 6.
Screening Cc1c(C(=O)NCCC2=CCCCC2)oc2ccc(S(=O)(=O)N3CCC4(CC3)OCCO4)cc12 returned FPR binder 0, FPRL1 ligand 4, VCAM-1 down inactive, VCAM-1 imaging inactive and VCAM-1 up imaging inactive.
For COc1ccc(NS(=O)(=O)c2ccc(NC(C)=O)cc2)cc1OC the results were FPR binder -7, FPRL1 ligand 6, VCAM-1 down inactive, VCAM-1 imaging inactive and VCAM-1 up imaging inactive.
CC(C)(C)OC(=O)NCCc1nnc(SCC(=O)c2ccc(Cl)cc2)o1 was read as FPR binder 0, FPRL1 ligand 6, VCAM-1 down inactive, VCAM-1 imaging inactive and VCAM-1 up imaging inactive.
